Screening results: PubChem, several laboratories
Mtb bLac sens – beta-lactam sensitization of Mtb H37Rv. M. tuberculosis H37Rv growth with meropenem, percent inhibition; hits of this screen are not shown here. actives 0.27% (n = 330,000). inhibition, % at 25 µM;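 active means about 74% or more and at least 40 points above the plate without the antibiotic, then above 30% in a dose series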;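 further: growth measured after seven days incubation then overnight dye step; 0% = bacteria only wells and 100% = bacteria with antibiotic; twin plates without the antibiotic show which effects depend on it; some results filed as inactive read as strong as hits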
RecA splice inh – Mtb RecA intein splicing inhibition | cell-free RecA intein splicing, fluorescence | inhibition, %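 (about 9 µM by stock and volumes)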 | actives 0.75% (n = 290,000); in the data active means inhibition above about 30%;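 further: 0% = vehicle wells and 100% = reference inhibitor control wells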
Target sequence (P9WHJ3 whole entry, looked up, canonical isoform): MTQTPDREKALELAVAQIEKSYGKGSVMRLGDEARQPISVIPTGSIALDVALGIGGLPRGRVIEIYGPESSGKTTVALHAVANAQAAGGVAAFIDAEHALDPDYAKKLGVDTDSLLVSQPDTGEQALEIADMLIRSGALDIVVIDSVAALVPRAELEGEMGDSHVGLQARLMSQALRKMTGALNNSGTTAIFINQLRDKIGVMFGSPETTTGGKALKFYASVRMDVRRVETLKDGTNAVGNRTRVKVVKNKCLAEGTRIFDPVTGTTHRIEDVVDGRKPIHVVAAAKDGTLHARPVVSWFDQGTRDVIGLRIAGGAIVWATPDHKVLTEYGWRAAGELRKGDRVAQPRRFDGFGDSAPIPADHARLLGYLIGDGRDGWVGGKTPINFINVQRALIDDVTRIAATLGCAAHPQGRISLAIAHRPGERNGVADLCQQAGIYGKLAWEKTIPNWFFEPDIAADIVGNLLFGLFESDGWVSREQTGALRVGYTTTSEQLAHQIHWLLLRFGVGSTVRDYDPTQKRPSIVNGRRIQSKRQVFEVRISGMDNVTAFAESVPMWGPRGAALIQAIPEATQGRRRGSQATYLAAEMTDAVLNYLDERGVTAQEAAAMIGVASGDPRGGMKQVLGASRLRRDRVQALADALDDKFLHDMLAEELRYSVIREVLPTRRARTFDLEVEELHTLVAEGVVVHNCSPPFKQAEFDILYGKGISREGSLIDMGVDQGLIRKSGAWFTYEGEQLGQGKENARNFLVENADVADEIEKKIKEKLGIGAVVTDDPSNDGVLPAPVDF
Mtb H37Rv – M. tuberculosis H37Rv growth inhibitors, H37Rv strain (AID 1626) | actives 0.95% (n = 220,000) | M. tuberculosis H37Rv growth inhibition; higher % means a stronger effect | inhibition, % at 10 µM; hits with a dose series show IC50 in µM;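 active means confirmed in a dose series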;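 further: bacteria incubated seven days before Alamar blue readout; 0% = bacteria only wells and 100% = bacteria with antibiotic wells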
YopH inh – blocks Yersinia enterocolitica YopH tyrosine phosphatase; fluorescence Ex485/Em525; inhibition, %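 (about 10 µM by stock and volumes)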; actives 0.16% (n = 140,000);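 active means inhibition of 50% or more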;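 further: controls were vehicle for no effect and minimum signal wells for full effect; inactives centre near -20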
Arbovirus anti – arbovirus infection inhibition | actives 0.37% (n = 200,000) | inhibition, % at 10 µM | arbovirus infection cell-based antiviral screen;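 active means inhibition from about 30%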;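 further: bluetongue infection of BSR cells; cell survival read as ATP light after 72 h; 0% = infected wells without compound and 100% = uninfected wells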
Arbovirus anti repeat – second read-out of Arbovirus anti, no call of its own (marks repeat the call); inhibition, %; measured here: 10K subset replicate screen; many hits read low in the repeat;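 first of two repeat runs on a subset; 0% = infected and 100% = uninfected wells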
An asterisk follows results filed as active; · = not tested or not shown. This is a subset (hit frequency here may not be typical).

SMILES | Mtb bLac sens | RecA splice inh | Mtb H37Rv | YopH inh | Arbovirus anti | others
CCOc1ccc(C(C)(O)CN2CCOCC2)cc1 (configuration not stated) | -3 | 1.6 | -8% | -27 | 5
Cc1ccccc1NC(=O)/C(=C\c1cccs1)NC(=O)c1ccco1 | -2 | 2.8 | 10% | -21 | 5
Cc1noc(C)c1C(=O)N1CCC2(CC1)OCCO2 | -8 | 1.3 | -13% | -66 | 4
COc1ccc(C)cc1N(CC(=O)Nc1cccnc1)S(=O)(=O)c1ccccc1 | -12 | -5.3 | -6% | · | -8
CCCCC(=O)Nc1ccc2c(c1)C(=O)NC2=O | 2 | 1.9 | 0% | -49 | 1 | Arbovirus anti repeat=2
CCC1CCc2c(sc(NC(C)=O)c2C#N)C1 (configuration not stated) | -3 | 1.6 | 3% | -23 | -8
COc1ccccc1S(=O)(=O)Cc1ccc(C(=O)NCc2ccc(C)cc2)o1 | 1 | 1.1 | · | · | ·
O=[N+]([O-])c1ccc(OCCO)nc1 | -5 | 1.9 | -4% | · | ·
CCOC(=O)C(/C=C(\C#N)C(=O)OCC)=C(/N)N1CCN(c2ccccc2)CC1 | -9 | -2.7 | 0% | 6 | 3
COc1ccc(-n2c(/C=C/c3ccc(O)cc3)nc3ccccc3c2=O)cc1 | -9 | -12 | · | · | ·
S=C(NCCCN1CCOCC1)NCCCN1CCOCC1 | 1 | 3.4 | 7% | 4 | 5
CCOc1ccc(NC(=O)Nc2ccc(Cc3ccncc3)cc2)cc1 | -1 | 1.0 | · | · | ·
CCOC(=O)c1cc2c(ccn2C)n1CC(=O)N1C(C)CCCC1C (configuration not stated) | -1 | 18 | 1% | · | -15
Cc1cc2c(nn1)CCC/C2=N\O | 11 | 1.9 | -11% | -101 | -4
CN(CCCOc1ccccc1Br)Cc1ccccc1 | -10 | -0.9 | 5% | · | -8
COc1ccccc1COCC(O)CNCC1(N2CCCCC2)CCCCC1 (configuration not stated) | 9 | -0.6 | -13% | -1 | -4
Cc1[nH]c2ccccc2c1C(=O)C(=O)NCc1ccncc1 | -4 | -0.4 | · | · | ·
COc1ccc(NC(=O)c2cc(S(=O)(=O)N3CCCCC3)ccc2N2CCCCC2)cn1 | -9 | 10 | -10% | -4 | -2
CCCCCCCC[n+]1cccc2c3ccccc3ccc21 | 16 | 3.0 | 18% | · | -27
Cc1[nH]c2ccccc2c1/C=N/O | -3 | -3.2 | 57% | -35 | -4

Molecules shown so far with an aryl methoxy group (five):
SMILES | Mtb bLac sens | RecA splice inh | Mtb H37Rv | YopH inh | Arbovirus anti | others
COc1ccc(C)cc1N(CC(=O)Nc1cccnc1)S(=O)(=O)c1ccccc1 | -12 | -5.3 | -6% | · | -8
COc1ccccc1S(=O)(=O)Cc1ccc(C(=O)NCc2ccc(C)cc2)o1 | 1 | 1.1 | · | · | ·
COc1ccc(-n2c(/C=C/c3ccc(O)cc3)nc3ccccc3c2=O)cc1 | -9 | -12 | · | · | ·
COc1ccccc1COCC(O)CNCC1(N2CCCCC2)CCCCC1 (configuration not stated) | 9 | -0.6 | -13% | -1 | -4
COc1ccc(NC(=O)c2cc(S(=O)(=O)N3CCCCC3)ccc2N2CCCCC2)cn1 | -9 | 10 | -10% | -4 | -2

Structures from the list above containing sulfur, in the order listed:
SMILES | Mtb bLac sens | RecA splice inh | Mtb H37Rv | YopH inh | Arbovirus anti | others
Cc1ccccc1NC(=O)/C(=C\c1cccs1)NC(=O)c1ccco1 | -2 | 2.8 | 10% | -21 | 5
COc1ccc(C)cc1N(CC(=O)Nc1cccnc1)S(=O)(=O)c1ccccc1 | -12 | -5.3 | -6% | · | -8
CCC1CCc2c(sc(NC(C)=O)c2C#N)C1 (configuration not stated) | -3 | 1.6 | 3% | -23 | -8
COc1ccccc1S(=O)(=O)Cc1ccc(C(=O)NCc2ccc(C)cc2)o1 | 1 | 1.1 | · | · | ·
S=C(NCCCN1CCOCC1)NCCCN1CCOCC1 | 1 | 3.4 | 7% | 4 | 5
COc1ccc(NC(=O)c2cc(S(=O)(=O)N3CCCCC3)ccc2N2CCCCC2)cn1 | -9 | 10 | -10% | -4 | -2

Continued:
SMILES | Mtb bLac sens | RecA splice inh | Mtb H37Rv | YopH inh | Arbovirus anti | others
Cn1c(=O)c2c(ncn2CCC(=O)N/N=C/c2cccnc2)n(C)c1=O | -20 | -1.2 | -1% | · | ·
CCCc1nnc(NC(=O)CCC(=O)NCCc2ccc(Cl)cc2)s1 | -1 | -1.4 | · | · | ·
CCCCNC(=S)NC(=O)c1ccc([N+](=O)[O-])cc1 | 42 | -0.1 | 6% | 1 | -23
COc1ccc(/C=C2\SC(=S)N(CC(=O)NCCO)C2=O)cc1 | 0 | -0.7 | 2% | · | 0
COc1ccc(NC(=O)c2cccc(N3C(=O)c4ccc(C(=O)Nc5ccc(OC)c(O)c5)cc4C3=O)c2)cc1O | 5 | -0.6 | · | · | ·
COc1ccc(CN2C(=O)CCC2(C)C(=O)NC2CCCCCC2)cc1 (configuration not stated) | 1 | -3.9 | -3% | -25 | 1
CCC(c1nnnn1Cc1cccs1)N1CCN(C2CCCC2)CC1 (configuration not stated) | -3 | -1.0 | -11% | -36 | -7
Cc1sc(NC(=O)c2ccc(=O)n(C)n2)nc1-c1ccccc1 | 54 | -0.5 | 11% | · | -7
CCOc1ccccc1NC(=S)NCCc1ccccc1 | -7 | 1.0 | -6% | · | 26
Cc1ccc(C2Nc3ccccc3C(=O)N2CCN2CCNC2=O)cc1 (configuration not stated) | 38 | -3.1 | -1% | · | ·
O=Nc1c(-c2cccc([N+](=O)[O-])c2)nc2ncccn12 | 100 | -5.8 | 12% | · | ·
Cc1cc(C)nc(NC(=O)CCC2CCCC2)c1 | 5 | 7.9 | -3% | 9 | -14
COc1ccc(/C=C2/C(=O)NC(=O)N(C3CCCCC3)C2=O)cc1CSc1ccccn1 | 3 | 6.6 | 9% | 12 | -1
COCCCNC(=O)CCSc1ccc(Cl)cc1 | 2 | -3.4 | -4% | -1 | -11
COc1ccc(C)cc1NC(=O)C1CCCN(S(=O)(=O)c2ccc(-n3cnnn3)cc2)C1 (configuration not stated) | 2 | 4.9 | · | · | ·
C[C@H](NC(=O)N1CCn2c1nc1ccccc12)C(=O)N1CCCCC1 | -3 | -1.4 | · | · | ·
CCC(=NCc1ccco1)c1c(O)n(C)c(=O)n(C)c1=O | -7 | -1.3 | 1% | · | ·
Cc1ccnc(NC(=O)COc2ccc(Cl)cc2)n1 | -2 | 1.0 | 1% | · | ·
CCOC(=O)C1(Cc2cccc(F)c2)CCN(Cc2cnc(C)s2)CC1 | -8 | 1.0 | 0% | · | -2
O=C(Nc1ccc(Cl)cc1C(F)(F)F)c1ccc(Cl)cc1 | 1 | 0.9 | · | -28 | -6
CCCCn1cnc2c1c(=O)n(CC(=O)c1cc(C)n(C)c1C)c(=O)n2CC(C)C | 3 | 1.7 | -5% | -5 | -2
Cc1cccc(N2CCN(S(=O)(=O)c3c(C)[nH]c(C)c3C(=O)N3CCCC3)CC2C)c1 (configuration not stated) | 1 | -0.1 | · | · | ·
Cc1ccc(S(=O)(=O)N2C(=O)CCC2C(=O)Nc2ccc3c(c2)OCCO3)cc1 (configuration not stated) | 1 | 1.9 | -7% | -9 | 1
NC(=O)c1c(NC(=O)c2cccnc2Cl)sc2c1CCCC2 | -1 | -2.9 | 8% | -28 | -8
Cc1cc(C)nc(SCc2cc(=O)c(OC(=O)c3ccc(Br)o3)co2)n1 | 2 | 1.2 | 2% | -24 | -3
O=C(CN1CCCCC1)N1CCN(S(=O)(=O)c2ccccc2)C1 | 4 | -1.0 | 7% | · | 5
Cc1cc(C)c(S(=O)(=O)c2ccccc2C)c(OCCN(C)C)n1 | 7 | -1.1 | · | · | ·
Cc1cccn2c(=O)c(C(=O)NC3CCCCC3C)c(O)nc12 (configuration not stated) | -1 | 8.4 | · | · | ·
O=S(=O)(c1ccc(Oc2ccc(Cl)cc2)nc1)N1CCOCC1 | -2 | -4.1 | · | · | ·
COc1ccc(Nc2cc(C(=O)NCc3ccco3)c3ccccc3n2)c(OC)c1 | 90 | 3.3 | 2% | -47 | 9
Cc1ccccc1C(=O)NN1CCOCC1 | -3 | 15 | -3% | -34 | 0
CN(C)C(=S)NC(=O)C12CC3(C)CC(C)(CC(C)(C3)C1)C2 | -6 | -0.8 | 2% | · | ·
Cc1ccc(-n2nc(CC#N)c(C#N)c2N)cc1Cl | -4 | -2.5 | -2% | -22 | 3
COc1ccccc1CNC(=S)Nc1cc(C)ccc1C | -2 | 4.1 | 7% | · | 9
CN(C1CCS(=O)(=O)C1)S(=O)C12CC3CC(CC(C3)C1)C2 (configuration not stated) | 0 | -2.2 | 1% | -14 | 5
C=CCNC(=O)c1onc(CSc2ccncc2)c1C(=O)NCC=C | -5 | -0.9 | -12% | · | ·
O=C(Nc1ccc(F)cc1F)C1CCCN(c2ncnc3c2nc2n3CCCCC2)C1 (configuration not stated) | 3 | -2.0 | · | · | ·
Cn1c(=O)[nH]c(=O)c2c1nc(N1CCc3ccccc3C1)n2CCSc1nc2ccccc2s1 | -14 | · | -2% | 1 | 12
COC(=O)c1[nH]c2ccc(C)cc2c1NC(=O)CN1CCN(Cc2ccccc2)CC1 | -10 | · | 7% | -37 | 10
O=C(NCc1ccccn1)C(C(=O)c1cccc([N+](=O)[O-])c1)n1cc(Cl)ccc1=O (configuration not stated) | -8 | 0.2 | 7% | · | 18
Cc1ccc2c(c1)C1CN(C)CCC1N2C(=O)CCCN1C(=O)c2cccc3cccc(c23)C1=O (configuration not stated) | 3 | 3.9 | 0% | · | ·
CN1CCN(c2nc3cc(C(F)(F)F)ccc3n3cccc23)CC1 | 43 | -1.4 | -6% | · | ·
O=C(O)CC(NC(=O)c1ccc2c(c1)OCO2)c1cccc([N+](=O)[O-])c1 (configuration not stated) | -2 | -2.4 | -4% | · | 6
O=C(O)CC1NC(=O)N(C2CCCCC2)C1=O (configuration not stated) | -4 | -1.9 | -3% | · | 2
O=C(COc1ccccc1[N+](=O)[O-])OC1CCS(=O)(=O)C1 (configuration not stated) | -2 | 2.2 | 0% | · | 3
OCCOCCOCCn1c2ccccc2c2ccccc21 | -4 | 0.0 | -9% | -6 | 0
Cc1cccc(N2CCN(S(=O)(=O)c3c(C)nc4scc(C)n4c3=O)CC2)c1C | 19 | 3.9 | · | · | ·
COc1ccc(COc2ccc(C3C(S(=O)(=O)c4ccccc4)CON3C)cc2OC)cc1 (configuration not stated) | -4 | -0.2 | 2% | · | 7
O=[N+]([O-])c1cc(-c2ccc(C(=S)N3CCOCC3)o2)ccc1Cl | 2 | 31* | 3% | · | -9
CCOC(=O)C1=C(N)OC2=C(C(=O)CC(C)(C)C2)C1c1ccc(C)s1 (configuration not stated) | 2 | 0.1 | 2% | · | 1

Continuation.
SMILES | Mtb bLac sens | RecA splice inh | Mtb H37Rv | YopH inh | Arbovirus anti | others
COc1ccc(OC)c(CCNC(=O)c2ccc(CS(=O)Cc3cccc(Cl)c3)o2)c1 (configuration not stated) | 5 | -0.4 | · | · | ·
COc1ccc(N(C)C(=O)c2oc(=O)c3ccccc3c2-c2ccc(C)cc2)c(OC)c1 | -8 | 16 | 7% | · | ·
COCCn1c(C)cc(C2=NNC(=Nc3ccc(Cl)cc3Cl)SC2)c1C | -5 | 4.7 | -18% | -17 | 3
CCOC(=O)c1c(N)sc(C(=O)N2CCCCCC2)c1C | 7 | -0.2 | 4% | -8 | -3 | Arbovirus anti repeat=3
Cc1cc([N+](=O)[O-])nn1CC(=O)Nc1nccs1 | -3 | 7.9 | 4% | -19 | 0
CCC1(O)c2ccccc2-c2ncccc21 (configuration not stated) | -8 | 1.3 | -13% | -7 | 2
O=c1oc2ccccc2c(O)c1Cc1cc(Cl)c2cccnc2c1O | 4 | -0.2 | 72% | · | ·
Cc1ccc(CSCC(=O)N(C)CC(=O)Nc2cccc(F)c2)cc1 | 1 | 1.8 | · | · | ·
CSc1nc2c(c(=O)n1-c1ccc(F)cc1)SCC2 | -3 | -0.6 | -20% | -19 | 7 | Arbovirus anti repeat=3
COc1ccc(OCc2cc(C(=O)N3CCCC(O)C3)no2)c2ccccc12 (configuration not stated) | -12 | 24 | · | · | ·
COc1ccc(-c2nc(/C=C3\C(C)=Nc4ccccc43)c(O)o2)cc1 | 31 | -1.9 | 77% | · | -3
COc1ccc(C2CC(c3cccs3)Nc3nnnn32)cc1 (configuration not stated) | -5 | 2.3 | -4% | · | 3
COCCn1c(SCC(=O)Nc2ccc3[nH]c(=O)[nH]c3c2)nc2ccccc2c1=O | -6 | 3.2 | 0% | · | ·
O=C(COC(=O)c1ccc2ncsc2c1)Nc1ncc(Cl)cc1Cl | 5 | 8.1 | -3% | -15 | 7
CC(=O)N1c2ccc(S(=O)(=O)N(C)CC(=O)NC3CCCC3)cc2CC1C (configuration not stated) | 7 | 1.7 | · | · | ·
O=C(O)/C=C/C(=O)NCCc1ccc(Cl)cc1 | -1 | -5.4 | 0% | · | ·
O=C(NCCc1ccccc1)C(c1cccs1)N(C(=O)c1csnn1)C1CC1 (configuration not stated) | -6 | 0.6 | -5% | -22 | 4
